# HSD17B inh: blocks hydroxysteroid 17-beta dehydrogenase activity; Q99714; actives 7.6% (n = 75,000); Potency, µM (top dose mostly 57.1 µM), without a hit: at the top dose activity change, negative = inhibition, usual class: inhibitors; recombinant HSD17B10, NADH fluorescence kinetic; many of its hits are not listed in these tables; active = well fitted inhibition curve with a large enough effect; inconclusive = small, poorly fitted or top-dose-only effect; inactive = no such curve, though single readings can be large or run the other way;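 also: the protocol describes HADH2 (HSD17B10) and not the HSD17B4 of the title; nearly all actives have a fitted effect of over 70% in size; most hits overshoot -100% by far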
#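 20 nM HADH2, pH 9.0 Tris/Tween; cpd preinc 15 min RT; start w/ 1 mM NAD+ + 90 uM b-hydroxybutyryl-CoA; kinetic fluor ex360/em450 q30s x 4 min; delta last-first.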
# An asterisk follows results filed as active; ? = inconclusive; & = joins results of further samples; [ ] = remark or other dose. % is scaled to controls: 0 for no effect and ±100 for the full control effect; potency is read from the fitted curve at half-maximal effect. The list is partial; count on the stated rates, not on these rows.
SMILES,HSD17B inh
CCCCS(=N)(=O)CCC(N)C(=O)O (stereo not drawn),-0.3%
O=C(O)CCC(=O)CCC(=O)c1ccccc1,7.1%
CCN1C=CC(=C2C(=O)c3ccccc3C2=O)C=C1,-5.0%
c1ccc(-c2nc(-c3ccncc3)no2)cc1,4.2%
CS(=O)(=O)Nc1ccc([N+](=O)[O-])cc1OC1CCCCC1,-11.9%
Cc1ccc(N2CCN(C(=O)c3ccccc3Br)CC2)c(C)c1,-7.5%
O=[N+]([O-])c1ccc2c(c1)Cc1cc(N=Cc3ccc4c(c3)OCO4)ccc1-2,5.0%[11.4 µM]
O=C(CN1CCOCC1)Nc1ccc(S(=O)(=O)NC2CCCCC2)cc1,9.5%
Nc1cc(N)c(OCC(F)(F)F)cc1OCC(F)(F)F,-13.7%
CS(=O)(=O)Nc1cccc(C(=O)CC2(O)C(=O)Nc3ccc(Br)cc32)c1 (stereo not drawn),-4.7%
Cc1nn(Cc2ccccc2)c(C)c1C(=O)OCC(=O)c1cc(C)n(C2CC2)c1C,6.1%
O=C(NCCCN1CCOCC1)c1ccc(CS(=O)(=O)c2cccc(C(F)(F)F)c2)o1,-11.3%
O=C(CSc1ccc2nnc(-c3ccc(Cl)cc3)n2n1)N1CCCC1,?
Cc1c(C(=O)NCc2ccccc2Cl)oc2c1C(=O)CCC2,-9.0%
CCN1C(=O)[C@H]2[C@H]3[C@H](O)[C@H](O)C/C(=N/OCc4ccccc4)[C@@H]3CC[C@@H]2C1=O,6.6%[11.4 µM]
CSc1nc(N)c2ncn([C@@H]3O[C@@H](COP(=O)(O)OP(=O)(O)OP(=O)(O)O)[C@@H](O)[C@H]3O)c2n1,-4.2%
O=C(Nc1nnc(/N=C/c2ccco2)s1)c1ccc(F)cc1,?
NC1=NCCN1CC(=O)O,3.8%
Cc1ccc2nc3c(cc(C(=O)NCC4CCCO4)n3C)c(=O)n2c1 (stereo not drawn),4.4%
Cc1cc2ccccc2c(=O)n1CC(=O)NCC1COc2ccccc2O1 (stereo not drawn),?
Cc1occc1-c1nnc(SCC(=O)Nc2ccccc2N2CCCCC2)n1C,-3.1%
CN(C)/C=C1/Nc2ccccc2C1=O,-21.3%
CSc1ccc(C(C(C(=O)c2cccs2)N2CCOCC2)N2CCOCC2)cc1 (stereo not drawn),-3.7%
O=C(Cn1nc(-c2ccc(Cl)cc2)ccc1=O)NCCN1CCOCC1,9.4%
O=C(NCc1ccco1)C1CC(=O)N(CCc2ccccc2)C1 (stereo not drawn),-9.4%
O=C(NC1CCCc2ccccc21)C1CCCN(S(=O)(=O)c2cnc[nH]2)C1 (stereo not drawn),4.2%
C=C(C)COc1ccc(-c2nc(N)nc(C)c2Oc2ccccc2OC)c(O)c1,11.0%
COc1cc(-c2ccc(=O)[nH]n2)ccc1OC(F)F,-8.3%
CCC(=O)Nc1cc(=O)[nH]c2ncnn12,6.8%
COC(=O)[C@@]1(Cc2ccc(OC)cc2)[C@H]2c3cc(C(=O)N(C)C)n(CCN4CNCC4=O)c3C[C@H]2CN1C(=O)c1ccccc1,-10.1%
CCOC(=O)c1cc2c3ccccc3n(CC)c2nc1N,25.1µM*
CCOc1ccc2nc(NS(=O)(=O)c3ccc4c(c3)n(C)c(=O)n4C)sc2c1,?
N#Cc1nc(COc2ccc(Cl)cc2Cl)oc1N1CCN(c2ccccc2)CC1,-20.9%
Cc1cc(C)c2c(CC(=O)O)coc2c1,2.4%
Cc1cc(C)cc(-n2c(=O)c3sccc3n(CC(=O)NCc3ccco3)c2=O)c1,-2.8%
O=C(O)c1ccc2c(c1)N(Cc1cccc(F)c1)C(=O)CS2,2.7%
CCC(C)NC(=O)c1cnn2c1NC(c1ccc3c(c1)OCO3)CC2C(F)(F)F (stereo not drawn),-3.5%
C[C@H]1NC(=O)NC1=O,7.5%&9.1%[25.6 µM]
O=C(Nc1ccc2oc(-c3ccccc3)nc2c1)c1ccc2c(c1)OCCO2,31.6µM*
Cc1ccc2[nH]c(=O)c(CN(CC3CCCO3)C(=O)c3ccncc3)cc2c1 (stereo not drawn),?
OC(CNCC1COc2ccccc2O1)COCc1cccs1 (stereo not drawn),6.2%
CNC(=O)[C@]1(C)C[C@H]1[C@H](NC(=O)[C@]1(C)C[C@H]1[C@H](NC(=O)[C@]1(C)C[C@H]1[C@H](NC(=O)[C@]1(C)C[C@H]1[C@H](NC(=O)OCc1ccccc1)c1ccccc1)c1ccccc1)c1ccccc1)c1ccccc1,4.2%
CCOC(=O)c1[nH]c2ccc(OC)cc2c1NC(=O)c1nonc1C,-27.7%
COc1ccc(NC(=O)Nc2ncn(Cc3cccc(C(F)(F)F)c3)n2)cc1OC,-4.9%
Cc1ccc(O)c(-c2cc(C(=O)Nc3ccc(S(=O)(=O)N4CC(C)OC(C)C4)cc3)[nH]n2)c1 (stereo not drawn),-2.9%
COc1cc(Sc2ccc(C)cc2)c(OC)cc1N,-23.8%
CCOc1ccc(N2CC(C(=O)NCc3ccc(F)cc3)CC2=O)cc1 (stereo not drawn),2.5%
CC(NC(=O)C1CCC1)c1ccc2c(c1)OCO2 (stereo not drawn),3.4%
Cc1cc(C)c(NC(=O)CS(=O)CC(=O)NCC2CCCO2)c(C)c1 (stereo not drawn),-2.1%
N#CC1=C(N)NC(SCc2ccccc2)=C(C#N)C12CCCCC2,-18.7%
CCNc1nc(NCC)nc(Nn2cnnc2)n1,-4.2%
CNc1nc(-c2ccccc2CN(C)C)nc2ccccc12,4.7%
Cc1ccc(N2C(=O)c3ccccc3C2Nc2cccnc2)nc1 (stereo not drawn),4.6%
FC(F)(F)c1ccccc1Nc1nccs1,-12.0%
OC1CCCN(c2c3c(nc4cc(-c5cccc(Cl)c5)nn24)CCC3)C1 (stereo not drawn),?
Cc1ccc(NC(=O)CSc2nnc(Cn3c(=O)sc4ccccc43)n2C)cc1,0.4%
Cc1ccc(C)c(NC(=O)C2CC(O)CN2C(=O)OC(C)(C)C)c1 (stereo not drawn),0.7%
O=C(C1CCN(S(=O)(=O)N2CCC3(CC2)OCCO3)CC1)N1CCOCC1,6.9%
CN1CCN(Cc2cc(COCc3ccccc3)c3cccnc3c2O)CC1,4.4%
CC(C)(C)n1nnnc1C(c1cccc(C#N)c1)N1CCCc2ccccc21 (stereo not drawn),-11.9%
# Remaining list, next part:
SMILES,HSD17B inh
CCCC(=O)C1=C(N(C)c2ccccc2)CC(C)(C)C(C(=O)OC)C1=O (stereo not drawn),-2.1%
CC[C@H]1NC(=O)c2cc(S(N)(=O)=O)c(Cl)cc2N1,?
Cc1cc(C)n(-c2nc(NCCO)c3c4c(sc3n2)CCCC4)n1,-27.0%
CC(=O)N1CCc2cc(S(=O)(=O)NC(CC(C)C)C(=O)Nc3cc(C)ccn3)ccc21 (stereo not drawn),0.1%
CC(C)Cc1nnc(NC(=O)CSc2ncn[nH]2)s1,0.3%
O=C(CCS(=O)(=O)c1ccc(Br)s1)N1CCc2ccccc21,-11.7%
Cc1ccc(N(C(C)C(=O)Nc2ccc3c(c2)OCO3)S(C)(=O)=O)cc1 (stereo not drawn),4.4%
CCOC(=O)c1ccc(CS(=O)c2ccc(Cl)cc2)o1 (stereo not drawn),0.2%
CCOC(=O)C1(Nc2nccs2)Sc2ccccc2NC1=O (stereo not drawn),8.0%
O=C(c1cc2ccccc2c(=O)o1)N1CCCc2ccccc21,12.6%
Cc1cc(C(=O)CSC(=S)SC(C)(C)C)ccc1Cl,4.1%[11.4 µM]
Cc1cc(=O)n2c(ccc3ccccc32)c1C#N,17.5%
COc1ccccc1CNC(=O)CN1C(=O)C(C)N(c2ccc(C)cc2)C1=O (stereo not drawn),5.9%
COC(C)(C)[C@]12CC(O)(c3ccccc3)ON1[C@H]1CCCCC1N2O (stereo partly drawn),6.5%
CCCCCNC(=O)C(C)NS(=O)(=O)c1ccc(OC)cc1 (stereo not drawn),-23.6%
CCC(C)Sc1nc2c(cnn2-c2ccccc2)c(=O)[nH]1 (stereo not drawn),2.8%
O=C(COC(=O)c1ccccn1)Nc1ccccc1Cl,7.5%
CCOC(=O)N1CCN(C(=O)CN(c2ccc(Cl)c(C(F)(F)F)c2)S(C)(=O)=O)CC1,0.2%
Cc1sc2nc(C(C)C)nc(SCC(=O)NCc3ccco3)c2c1C,-16.5%
O=C(Cn1nnc(-c2ccc(Cl)cc2)n1)NC1CC2CCC1C2 (stereo not drawn),-1.4%
Cc1ccc2c(CSc3nnc(C4CC4)n3N)cc(=O)oc2c1,1.1%
CCN1CCC[C@H]1CNC(=O)c1c(OC)ccc(Br)c1OC,3.1%
c1coc(-c2nnc(SCc3cn4ccccc4n3)o2)c1,-6.2%
O=C(c1cc(-c2cccs2)on1)N1CCc2ccccc2C1,-19.0%
COc1ccc(CCN(C)CCC[C@@](C#N)(c2cc(OC)c(OC)c(OC)c2)C(C)C)cc1OC,-0.5%
O=C(c1ccco1)N1CCN=C1SCc1cccc(Cl)c1,9.2%
c1nnn(C23CC4CC(CC(C4)C2)C3)n1,-10.7%
COC(=O)c1ccccc1NC(=O)C1CCN(S(C)(=O)=O)CC1,-22.9%
CCOc1ccc(N2CCCn3c2nc2c3c(=O)n(CCc3ccccc3)c(=O)n2C)cc1,-11.4%
CCOC(=O)c1c(C)nn(Cc2ccccc2)c1N,7.1%
O=C(c1ccc(S(=O)(=O)NCC2CCCO2)cc1)N1CCc2ccccc21 (stereo not drawn),-3.8%
CCCc1nnc(SCCSc2nnc(CCC)n2N)n1N,16.4%
CCOc1ccc(S(=O)(=O)NCc2csc(C)n2)cc1,3.3%
COCc1cc(C)nc(N2CCOCC2)c1C#N,25.1µM*
COC(=O)c1ccc(CSc2nnc(NCc3ccccc3)s2)o1,?
CC(C)Cn1c(=O)n(C)c(=O)c2[nH]cnc21,9.7%&8.1%&-15.1%
CCCC(=O)N=C1SC2CS(=O)(=O)CC2N1c1ccc(CC)cc1 (stereo not drawn),10.7%
COc1ccc(-c2nsc3c(N4CCCC4)ncnc23)cc1,-0.8%
CCc1cc2c(N3CCN(c4ccccc4)CC3)ncnc2s1,-16.6%
Cc1ccc(NC(=O)C2CCCN(S(=O)(=O)c3cccs3)C2)cc1 (stereo not drawn),7.5%
CN(C)S(=O)(=O)N1CCCN(S(=O)(=O)N(C)C)CC1,4.2%
CCCCN(CC)S(=O)(=O)c1ccc(C(=O)Nc2nnc(-c3cccs3)o2)cc1,-10.3%
CCCc1cc(C(=O)Nc2cccc(Cl)c2)no1,-0.3%
IC(I)I,?

# Screening results deposited in PubChem BioAssay by National Center for Advancing Translational Sciences (NCATS).
